miR-21 FLuc = qHTS Assay for Modulators of miRNAs and/orActivators of miR-21; HeLa miR-21 FLuc reporter, luciferase, 48 h; Potency, µM (highest dose often 38.3 µM), for inactives: top-dose reporter change, positive = more light; 340,000 tested, under 10 active; AID 2288, 2010; active = well fitted rising curve with a large enough effect; inconclusive = small, poorly fitted or top-dose-only effect; inactive = no such curve, though single readings can be large or run the other way;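 note: % of control where 0% means no effect; miR-21 action dims this reporter so a rising signal means less miR-21 action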
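HeLa miR-21-FLuc reporter line, endogenous miR-21; 2000 cells/well in DMEM/10% FBS; compound titration up to ~40uM final, 48 h, 37 degree Celsius; luciferase detection reagent, 15 min lysis, CCD luminescence.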
Rango dissoc inh = qHTS Assay for Inhibitors of RanGTP induced Rango (Ran-regulated importin-beta cargo) - Importin beta complex dissociation | Potency, µM (titrated, usually from 46.1 µM), for the others: top-dose activity change, negative = inhibition | Biochemical FRET Rango-importin beta, RanGTP-induced dissociation | 340,000 compounds, 0.071% hits; active means falling FRET ratio curve, often poorly fitted, with flat reads before Ran was added; inconclusive means other falling curves, or compound fluorescence or quenching; inactive means flat or rising ratio curve;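 note: potency is the fitted concentration of half-maximal effect; % of control where 0% means no effect; nearly all actives have a fitted effect of over 45% in size; -100% = wells without RanGTP and RCC1; the record marks most hits as doubtful in a second field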
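Compounds preincubate 5 min with complex of recombinant Rango and importin beta in PBS with 1 mM DTT. Ran (0.6 uM) loaded with 2 mM GTP plus 0.2 uM RCC1 starts dissociation; FRET is recorded 45 min later.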
GLA inh pH 4.5 = qHTS Assay for Inhibitors of Human alpha-Galactosidase at pH 4.5 | purified enzyme, 4-MU-alpha-Gal fluorescence, pH 4.5 | activity change, negative = inhibition, % at 105 µM | 230,000 tested, under 10 active; inconclusive = small, poorly fitted or top-dose-only inhibition, or a rising curve; inactive = flat fitted curve, though single readings scatter; no compound was filed as active;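 note: 0% = full activity with enzyme and -100% = basal without enzyme; dose as in the result columns while the protocol names 77 µM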
Rango complex inh = qHTS Assay for Inhibitors of Rango (Ran-regulated importin-beta cargo) - Importin beta complex formation; Importin subunit beta-1 (Homo sapiens), Q14974; Rango CFP/YFP FRET sensor + importin beta, 45 min; AID 540263, 2011; Potency, µM (doses to about 92.2 µM), for inactives: at the highest dose inhibition of complex formation; 340,000 compounds, 0.031% hits; active = rising FRET ratio curve, often small or poorly fitted; inconclusive = mostly compound fluorescence or quenching in the first reads; inactive = flat curves in all reads;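 note: potency is the fitted concentration of half-maximal effect; 0% = DMSO wells and 100% = buffer wells lacking importin beta; nearly all actives have a fitted effect of over 15% in size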
Target sequence (Q14974 whole entry, looked up): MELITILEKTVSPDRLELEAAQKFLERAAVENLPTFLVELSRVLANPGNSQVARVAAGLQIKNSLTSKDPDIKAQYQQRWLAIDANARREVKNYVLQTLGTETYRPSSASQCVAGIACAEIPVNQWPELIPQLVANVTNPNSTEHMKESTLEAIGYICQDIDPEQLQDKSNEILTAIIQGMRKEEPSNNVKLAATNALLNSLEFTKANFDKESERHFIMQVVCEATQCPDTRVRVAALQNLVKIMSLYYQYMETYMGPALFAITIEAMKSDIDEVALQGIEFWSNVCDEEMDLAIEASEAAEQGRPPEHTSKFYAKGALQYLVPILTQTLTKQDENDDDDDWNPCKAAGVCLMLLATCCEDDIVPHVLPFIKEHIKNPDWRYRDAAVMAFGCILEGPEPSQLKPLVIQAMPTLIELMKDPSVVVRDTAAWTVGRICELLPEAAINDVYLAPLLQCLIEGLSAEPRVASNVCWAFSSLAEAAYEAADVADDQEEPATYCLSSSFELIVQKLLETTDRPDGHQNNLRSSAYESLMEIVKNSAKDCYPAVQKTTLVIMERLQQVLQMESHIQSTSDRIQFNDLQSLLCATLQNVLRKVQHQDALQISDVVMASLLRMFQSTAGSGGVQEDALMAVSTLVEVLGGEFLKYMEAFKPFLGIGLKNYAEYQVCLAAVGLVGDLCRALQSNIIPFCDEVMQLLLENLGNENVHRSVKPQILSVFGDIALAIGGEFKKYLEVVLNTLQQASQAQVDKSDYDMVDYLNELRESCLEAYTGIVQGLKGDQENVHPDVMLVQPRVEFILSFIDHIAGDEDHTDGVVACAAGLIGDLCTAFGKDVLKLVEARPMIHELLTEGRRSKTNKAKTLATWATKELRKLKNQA
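FRET biosensor (snurportin 1 IBB flanked by EYFP and cerulean), 50 nM, with compound 5 min, then 0.125 microM importin beta in PBS, 1 mM DTT, 0.02% Tween-20, 0.1% BSA. CFP/YFP ratio read after 45 min at room temperature; pre-read flags interference.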
An asterisk follows results filed as active; u = inconclusive; x = no result given; & = joins results of further samples.

Start of the data: the first 2 records as a preview:
Structure,miR-21 FLuc,Rango dissoc inh,GLA inh pH 4.5,Rango complex inh
Cc1nc(SCC(=O)N(C)Cc2ccco2)c2c(C)c(C)sc2n1,-1%,5%,9,2.8%
Cc1ccc(S(=O)(=O)Cc2nnnn2-c2ccccc2)cc1,-5%,-3%,x,0.3%

Main list, previewed entries included:
Structure,miR-21 FLuc,Rango dissoc inh,GLA inh pH 4.5,Rango complex inh
Cc1nc(SCC(=O)N(C)Cc2ccco2)c2c(C)c(C)sc2n1,-1%,5%,9,2.8%
Cc1ccc(S(=O)(=O)Cc2nnnn2-c2ccccc2)cc1,-5%,-3%,x,0.3%
Cc1cccc2sc(N(CCCN(C)C)C(=O)CCc3ccccc3)nc12,u,-13%,-9,0.4%
O=C(O)CSCC(=O)N(Cc1ccccc1)c1nc(-c2ccccc2)c(-c2ccccc2)s1,-3%,-10%,x,-0.2%
O=C(COC(=O)c1ccc(F)c(S(=O)(=O)N2CCOCC2)c1)NCc1ccc2c(c1)OCO2,x,4%,x,0.4%
Cc1ccc(CNC(=O)CSc2c3c(nc4cc(Cl)ccc24)CCCC3)o1,10%,-13%,2,-0.9%
CCc1nc2ccc(C(=O)N(C)CC(=O)Nc3cccc(F)c3)cc2nc1CC,x,-8%,x,0.4%
Cc1ccc2nc3[nH]c(=O)[nH]c(=O)c3c(N)c2c1,x,-9%,x,-1.2%
Nn1c(SCc2c(F)cccc2F)nnc1-c1ccccn1,-59%,11%,0,-0.1%
C=CCc1c(C)nc2cc(-c3ccc(C)cc3)[nH]n2c1=O,-38%,-18%,x,0.7%
Cc1ccc(-c2cn(CCN)c(-c3ccc(Cl)nc3)n2)cc1,x,-18%,x,1.3%
CC(=O)Nc1cccc(NC(C)=O)n1,5%&-4%,10%,-21&4,-2.1%
Brc1ccc(CSc2ncnc3nc[nH]c23)cc1,-13%,-5%,2,3.4%
CC(C)(C)c1ccc(C(=O)c2c[nH]c(C(=O)NCc3cccnc3)c2)cc1,9%,-12%,-10,-3.0%
N#CC1=C(N)OC2=C(CCc3ccccc32)C1c1ccccc1 (stereo unspecified),2%,0%,-11,-4.6%
CC(OC(=O)C1CC1C)C(=O)Nc1ncc(Cl)cc1Cl (stereo unspecified),x,3%,x,-2.8%
CCN1CCN(c2cc(C)c3cc(NC(=O)c4cnccn4)ccc3n2)CC1,-32%,22%,1,-2.6%
O=C(COC(=O)c1cc([N+](=O)[O-])ccc1N1CCOCC1)Nc1c(Cl)cccc1C(F)(F)F,-4%,-3%,x,-4.3%
COc1ccc(C(=O)NCc2ccc(C(=O)O)o2)cc1,-6%,1%,x,3.4%
C=CCN1C(=O)CSc2ccc(C(=O)NCc3ccc(F)cc3)cc21,6%,-2%,x,-3.3%
CCOC(=O)CC(NC(=O)Cn1nnc(-c2ccccc2F)n1)c1ccccc1Cl (stereo unspecified),7%&9%,-4%,-1,0.3%
CC(=O)c1cc2ccc(O)cc2oc1=O,3%,u,u,u
COC(=O)C1CCN(C(=O)COc2ccc(Cl)cc2)CC1,2%,4%,2,3.5%
Cc1ccc(NC(=O)COC(=O)C2CCC2)cc1S(=O)(=O)N1CCCCC1,x,9%,x,3.7%
COC(=O)[C@H](Cc1ccccc1)NC(=O)c1cc(COc2c(F)cccc2F)on1,-52%,16%,x,0.1%

Later entries
Structure,miR-21 FLuc,Rango dissoc inh,GLA inh pH 4.5,Rango complex inh
Cc1ccccc1NC(=O)C1CC(=O)N(c2ccccc2F)C1 (stereo unspecified),-8%,17%,-25,-1.2%
Cc1ccc(C)c(CN2C(=O)C(C)Oc3ccc(C)cc32)c1 (stereo unspecified),-3%,-4%,4,-1.9%
CSc1ccc(NC(=O)CC(C)=O)cc1,-15%,7%,7,0.6%
O=C(CSc1cccc[n+]1[O-])NN(c1ccccc1)c1ccccc1,-16%,8%,9,0.3%
CCNCc1cc(OCC)c(OCC(=O)NCCc2ccccc2)cc1Cl,-10%,13%,-18,0.4%
NC(=O)C1CCN(C(=O)CC2(CC(=O)O)CCCCC2)CC1,-2%,3%,6,0.8%
COc1ccc(CC(=O)Nc2ccccc2NC(=O)c2ccco2)cc1OC,-3%,-10%,2,-1.0%
Cc1cccc2nc(=S)n(C(=O)c3ccco3)n12,-66%,13%,2,0.6%
CN(C)c1nc(N(C)C)n(Cc2c(Cl)cccc2Cl)n1,-2%,-5%,5,-3.3%
COc1cccc(COC(=O)C2CCN(S(=O)(=O)c3ccc(F)cc3)CC2)c1OC,x,-1%,x,u
Cc1c(NS(=O)(=O)c2ccccc2)c(=O)n(-c2ccccc2)n1C,-3%,4%,1,5.3%
Cc1cccc(N2CCN(C(=O)CCN3C(=O)C4C5C=CC(C5)C4C3=O)CC2C)c1 (stereo unspecified),-2%,0%,3,-1.6%
O=C(CSc1n[nH]c(=O)n1C1CC1)Nc1ccc(Cl)cc1Cl,x,11%,x,-0.3%
CCC(C)NC(=O)COc1ccccc1[N+](=O)[O-] (stereo unspecified),-10%,12%,-2,-1.8%
CCC1(c2ccccc2)NC(=O)N(CC(=O)Nc2ccccc2C(=O)N2CCCCC2)C1=O (stereo unspecified),x,2%,x,0.0%
O=S(=O)(NCCN1CCOCC1)c1cc(Cl)c(Cl)cc1Cl,-12%,-6%,x,3.4%
COc1ccccc1-c1ccc(SCc2ccccc2)nn1,-42%,0%,2,-0.6%
CC(NC(=O)C(=O)NCc1cccs1)c1ccccc1 (stereo unspecified),-9%,-3%,x,1.5%
Clc1ccc(-c2csc(N3CCSCC3)n2)cc1,-53%,-3%,3,-1.5%
CCCC1CCC(C(=O)Nn2cnc3ccccc3c2=O)CC1 (stereo unspecified),-10%,-5%,-3,1.7%
CC(=O)Nc1cc(-c2ccc(Cl)cc2)[nH]n1,-31%,-10%,-1,-0.5%
Cc1cc2nc3n(c2cc1C)CC1CC(C(=O)NCC2CC2)N(C)C31 (stereo unspecified),-7%,48%,2,-0.8%
CCCc1cc(=O)n2[nH]c(NCc3ccc(Cl)cc3Cl)nc2n1,-3%,12%,3,u
Cc1ccccc1OCC(=O)Nc1ccc(C(N)=O)cc1,-19%,4%,2,-3.2%
O=C(COC(=O)c1ccc2c(c1)C(=O)N(Cc1ccncc1)C2=O)Nc1ccccc1[N+](=O)[O-],-8%,-15%,1,-2.1%

Given with two lines to a compound: part of the list above.
Every second line gives: miR-21 FLuc | Rango dissoc inh | GLA inh pH 4.5 | Rango complex inh
CCN1CCN(c2cc(C)c3cc(NC(=O)c4cnccn4)ccc3n2)CC1
→ -32% | 22% | 1 | -2.6%
Cc1ccccc1OCC(=O)Nc1ccc(C(N)=O)cc1
→ -19% | 4% | 2 | -3.2%
CCC1(c2ccccc2)NC(=O)N(CC(=O)Nc2ccccc2C(=O)N2CCCCC2)C1=O (stereo unspecified)
→ x | 2% | x | 0.0%

Following part
Structure,miR-21 FLuc,Rango dissoc inh,GLA inh pH 4.5,Rango complex inh
CC(C)(C)NC(=O)C(c1ccncc1)N(C(=O)CNC(=O)c1ccco1)c1ccc2c(c1)OCO2 (stereo unspecified),-6%,-10%,-8,2.1%
O=C(Nc1cccc(C(=O)N2CCN(c3ccccc3)CC2)c1)c1ccco1,1%,34%,x,u
Cc1cc(C(=O)Cn2nc(C(=O)O)c3ccccc3c2=O)c(C)n1-c1ccc(OC(F)F)cc1,0%,-10%,-5,u
Cc1nnc(NC(=O)c2ccc3ccccc3c2)s1,-42%,-8%,x,-2.0%
Cc1nc(N2CCN(S(=O)(=O)c3ccccc3C#N)CC2)c2c(-c3cccs3)csc2n1,25%,2%,7,u
CC(=O)Nc1ccccc1-c1nc2ccc(C(=O)N3CCN(c4ccccc4)CC3)cc2[nH]c1=O,-9%,10%,5,-0.2%
Cc1nc2ccccc2n1C(C)c1ccccc1 (stereo unspecified),-5%,8%,x,2.9%
COc1ccc(NC(=O)CSc2nnc(NC(=O)c3ccc(S(=O)(=O)N4CCOCC4)cc3)s2)cc1,0%,1%,3,-4.7%
Cn1c(NC(=S)Nc2ccccc2)nc2ccccc21,-22%,22%,-5,8.3%
CC(C)(C)C1CCC(=NNc2ncc(C(F)(F)F)cc2Cl)CC1 (stereo unspecified),-9%,1%,3,-1.4%
Cc1ccc(CN2CCN(/N=C/c3ccc(N(C)C)cc3)CC2)cc1,-12%,8%,-2,0.6%
O=C(COC(=O)/C=C/c1ccc(OC(F)F)cc1)NCCN1C(=O)CSC1=O,-5%,-7%,3,-0.4%
Cc1ccn(CC(=O)N/N=C/c2cc([N+](=O)[O-])ccc2O)n1,18%,-3%,0,3.5%
COc1ccc(C2c3ccsc3CCN2C(=O)C(C)(C)C)cc1 (stereo unspecified),1%,-3%,-12,-2.7%
Cc1ccc(NC(=O)COc2ccccc2[N+](=O)[O-])nc1,-31%,11%,6,-3.6%
COc1ccccc1NC(=O)Cn1c(C)cc(=O)c2cccc(OC)c21,13%,0%,7,4.1%
CCCOC(=O)c1ccc(NC(=O)c2nc3nc(C)cc(C)n3n2)cc1,0%,6%,16,-2.9%
CC1=NC2(CCCc3c2no[n+]3[O-])N(O)C1(C)C (stereo unspecified),5%,2%,3,2.7%
CCN(CC)S(=O)(=O)c1ccc2[nH]c(=O)cc(C(=O)Nc3ccccc3N3CCOCC3)c2c1,x,-1%,x,-2.0%
COc1ccc(/C=N/N2CCOCC2)cc1OCc1ccccc1,-6%,2%,-8,6.3%
O=[N+]([O-])c1ccc2[nH]c(=S)[nH]c2c1,x,-3%,x,1.4%
Clc1cccc(CSc2nnc([C@@H]3CCCN3)o2)c1,-22%,-19%,-17,0.2%
NS(=O)(=O)c1ccc(CCNC(=O)COC(=O)/C=C/c2ccc(Cl)cc2)cc1,1%,-16%,-14,2.5%
COc1ccc(OC)c(N/C(=N/c2nc(C)cc(C)n2)NC(C)=O)c1,-4%,-15%,6,-0.1%
Cc1ccc(C2C(C#N)=C(N)OC3=C2C(=O)CCC3)s1 (stereo unspecified),4%,7%,5,-1.9%

New compounds follow:
Structure,miR-21 FLuc,Rango dissoc inh,GLA inh pH 4.5,Rango complex inh
COC(=O)c1cc(CSc2nnc(-c3ccccc3)c(-c3ccccc3)n2)oc1C,8%,-6%,-5,-0.5%
C/C(=N/NC(=O)c1ccncc1)c1ccc2c(c1)OCO2,-7%,-2%,x,-1.9%
CCOC(=O)N1CCC(N2Cc3cccc(C(=O)Nc4ccc(OCC)cc4)c3C2=O)CC1,-3%,-10%,x,-0.1%
O=C(c1ccc(CNS(=O)(=O)c2cccc(Cl)c2)cc1)N1CCCCC1,1%,-4%,x,-2.5%
Cc1ccccc1C(=O)Nc1ccc(-c2nnc(SC(C)C(=O)O)n2C)cc1 (stereo unspecified),-7%,-8%,1,-1.4%
S=c1[nH]nc(-c2cccnc2)n1/N=C/C(Cl)=C\c1ccccc1,-40%,-1%,1,0.6%
COc1cc(OC)c(NC(C)C(=O)NCc2ccccc2)cc1Cl (stereo unspecified),3%,-13%,-4,-0.1%
COc1cccc(Oc2ccc(C(F)(F)F)cc2NC(=O)CN2C(=O)NC3(CCCC3)C2=O)c1,x,13%,x,0.8%
Cc1c(Cl)cccc1NC(=O)CN1CCC(C(O)(c2ccccc2)c2ccccc2)CC1,4%,-4%,0,-0.3%
CC[C@]12c3[nH]c4ccccc4c3CCN1C(=O)C(CC(=O)NCCCn1ccnc1)C[C@@H]2C(=O)N1CCN(C(=O)C2CC2)CC1 (stereo partly specified),x,6%,x,-2.1%
CC(C)(C)c1nc2ccccc2[nH]1,0%,20%,7,5.4%
CCOC(=O)c1sc(N)c(C#N)c1COC(=O)C1=COCCO1,x,-4%,x,2.0%
CCCCCCCCCCCCOC1OC(CO)C(O)C(O)C1NC(C)=O (stereo unspecified),0%,-15%,10,2.2%

High-throughput results (PubChem BioAssay)

Some of the compounds tested, so the mix of outcomes need not match the whole.
